LASV entry inh: blocks Lassa virus binding to or entry into cells; hit rate 1.2% among 300,000; Potency, µM (series often up to 37.9 µM), for inactives: top-dose activity change, negative = inhibition, hits mostly inhibitors; Lassa virus pseudotype entry inhibition, cell reporter; control for the full effect not named in the record; AID 540256; active means well fitted inhibition curve with a large enough effect; inconclusive means small, poorly fitted or top-dose-only effect, or effect the other way; inactive means flat fitted curve, though single readings scatter; tested in HEK293 cells; note: % is set by controls: 0 for no effect and ±100 for the full control effect; nearly all actives have a fitted effect of over 50% in size; luciferase read-out
NS1 inh: inhibitors of influenza NS1 protein function; S. cerevisiae slowed by influenza A NS1, growth recovery by OD600; Potency, µM (top dose mostly 46.1 µM), for the others: at the highest dose activity, positive = more growth; hit rate 0.4% among 270,000; active means well fitted rising curve with a large enough effect; inconclusive means small, poorly fitted or top-dose-only effect; inactive means no such curve, though single readings can be large or run the other way; note: nearly all actives have a fitted effect of over 50% in size
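Read-out: OD600 growth recovery of NS1-expressing budding yeast. Cells grown overnight at 30C in -URA glucose medium, washed, resuspended and diluted 1:100 in 2% galactose assay medium, pH 6.0. Same strain lacking NS1 served as positive control.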
Marburg entry inh: inhibitors of Marburg virus binding or cell entry | Marburg virus pseudotyped entry inhibition, cell reporter; control for the full effect not named in the record; about a third of the inactives were read at about 46 µM | Potency, µM (top dose mostly 37.8 µM), inactives show top-dose activity change, negative = inhibition, actives largely listed as inhibitors | hit rate 1.8% among 300,000; active = well fitted inhibition curve with a large enough effect; inconclusive = small, poorly fitted or top-dose-only effect, or effect the other way; inactive = flat fitted curve, though single readings scatter; tested in HEK293 cells; about a fifth of its hits are not listed in these tables; note: % is set by controls: 0 for no effect and ±100 for the full control effect; luciferase read-out
RE007 growth inh: less growth of the S. pombe RE007 Vpr strain; S. pombe RE007 Vpr strain, BacTiter-Glo ATP luminescence, 24 h; control for the full effect not named in the record; Potency, µM (highest dose often 92.2 µM), inactives show top-dose activity change, negative = less growth; hit rate 0.21% among 360,000; active = well fitted falling curve with a large enough effect; inconclusive = small, poorly fitted or top-dose-only effect; inactive = no such curve, though single readings can be large or run the other way;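 note: % is set by controls: 0 for no effect and ±100 for the full control effect; nearly all actives have a fitted effect of over 50% in size; the assay follows cell death caused by Vpr and the record does not say whether a fall means rescue or toxicity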
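Fission yeast strain RE007, carrying one chromosomally integrated HIV-1 vpr copy, was seeded at OD 0.01 in PMG+AL medium with 23 nL pinned compound. After 24 h at 30 °C and 99% humidity, viability was read by BacTiter-Glo luminescence.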
StopGo reporter: FMDV 2A StopGo reporter, luciferase signal. Potency, µM (doses to about 57.9 µM), for the others: top-dose signal change, negative = less light. human cells with a luciferase reporter of 2A StopGo recoding; control for the full effect not named in the record. hit rate 1.2% among 410,000. AID 1159524; active = well fitted falling curve with a large enough effect; inconclusive = small, poorly fitted or top-dose-only effect; inactive = no such curve, though single readings can be large or run the other way; tested in HEK293T cells; note: % is set by controls: 0 for no effect and ±100 for the full control effect; nearly all actives have a fitted effect of over 45% in size; luciferase light after 4 h
Cruzain noTriton: inhibitors of Trypanosoma cruzi cruzain without detergent | P25779 | purified cruzain, Z-FR-AMC fluorescence, no detergent | Potency, µM, for the others: max response, negative = inhibition, usual class: inhibitors | hit rate 2.3% among 200,000 | AID 1476;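 note: plate controls were enzyme without inhibitor for no effect and buffer without enzyme for full effect; nearly all actives have a fitted effect of over 40% in size; top concentration of the series not given in the record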
Target sequence (P25779 123-467 limits assumed): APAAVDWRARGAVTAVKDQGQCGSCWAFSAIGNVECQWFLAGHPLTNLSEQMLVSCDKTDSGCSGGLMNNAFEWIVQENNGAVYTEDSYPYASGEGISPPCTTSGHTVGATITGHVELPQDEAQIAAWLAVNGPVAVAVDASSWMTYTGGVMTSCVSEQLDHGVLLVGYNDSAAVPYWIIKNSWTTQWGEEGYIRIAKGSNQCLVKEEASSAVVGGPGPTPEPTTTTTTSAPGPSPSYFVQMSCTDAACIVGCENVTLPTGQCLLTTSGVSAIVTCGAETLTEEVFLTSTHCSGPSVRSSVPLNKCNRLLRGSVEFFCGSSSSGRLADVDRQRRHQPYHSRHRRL
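Purified cruzain at 1.5 nM, pre-incubated 15 min with compound at room temperature in 100 mM sodium acetate pH 5.5, 5 mM DTT, 0.00005% Triton X-100. Reaction started with 2 uM Z-FR-AMC; AMC fluorescence increase over 60 s gives rate.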
SARS PLpro yeast: blocks SARS-CoV papain-like protease in a yeast assay | S. cerevisiae expressing SARS-CoV PLpro, growth rescue; control for the full effect not named in the record | Potency, µM (series often up to 32.9 µM), for the others: at the top dose activity, positive = growth rescue | hit rate 0.19% among 330,000 | AID 485353; active means well fitted rising curve with a large enough effect; inconclusive means small, poorly fitted or top-dose-only effect; inactive means no such curve, though single readings can be large or run the other way; note: 0% is about no effect; nearly all actives have a fitted effect of over 55% in size; growth read by luminescence after 48 h
Cruzain inh Det: cruzain (T. cruzi) inhibition with detergent. P25779. purified cruzain, Z-FR-AMC fluorescence, 0.01% Triton. Potency, µM, inactives show max response, negative = inhibition, hits mostly inhibitors. hit rate 0.43% among 200,000. AID 1478;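 note: plate controls were neutral wells for no effect and buffer without enzyme for full effect; nearly all actives have a fitted effect of over 40% in size; top concentration of the series not given in the record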
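Steps: dispense cruzain (1.5 nM final) in acetate buffer pH 5.5 with DTT and 0.01% Triton X-100; pin-transfer compounds; incubate 15 min RT; add Z-FR-AMC (2 uM final); read fluorescence every 30 s, using the 60 s intensity change.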
The depositor's hits bear a star; ? = inconclusive; · = not tested or not shown; & = joins results of further samples; [ ] = another dose, or the depositor's remark. Unless noted, calls come from the whole dose curve; as a rule, active = well fitted curve in the direction sought with a large enough effect; inconclusive = small, poorly fitted or top-dose-only effect, or another doubt; inactive = no such curve, though single readings can be large; an effect the other way counts as inactive or inconclusive. Potency is the fitted concentration of half-maximal effect.

SMILES | LASV entry inh | NS1 inh | Marburg entry inh | RE007 growth inh | StopGo reporter | Cruzain noTriton | SARS PLpro yeast | Cruzain inh Det
Cc1cc(Br)ccc1SCC(=O)OCC(=O)Nc1ncc(C(F)(F)F)cc1Cl | ? | 11.1% | 8.2% | 6.1% | -2.7% | 5.8% | 17.5% | -13.4%
COc1ccc(-c2cc(=Nc3c(C)n(C)n(-c4ccccc4)c3=O)c3ccccc3o2)cc1 | 7.2%[46.1 µM] | · | ? | -15.5% | -4.1% | · | -7.0% | ·
COC(=O)COc1ccccc1C(N)=O | 2.9% | -18.1% | 9.4% | 1.9%[3.69 µM] | -21.8% | -1.2% | 8.2% | 1.4%
CCCCn1c(N)c(N(CC(C)C)C(=O)C2CCN(S(=O)(=O)c3ccc(OCC)cc3)CC2)c(=O)[nH]c1=O | 24.8% | · | 1.2% | 3.7% | -4.9% | · | 2.4% | ·
C=CCn1c(NCCO)nc2c1c(=O)n(C)c(=O)n2C | 9.7% | -6.3% | -9.9% | -7.4% | -29.1% | -8.2% | 0.0% | 0.9%
CC(CN1CCN(Cc2ccccc2)CC1)c1ccccc1 (stereo unspecified) | · | -14.5% | · | 62.2% | 6.9% | · | -8.0% | ·
CN(C)C(=O)N1CCC(C(=O)NCc2ccc3c(c2)OCO3)CC1 | -0.4% | -1.8% | 8.5% | -2.4% | 10.3% | -8.3% | 5.3% | 1.8%
CCOC(=O)C1CCCN(C(=O)Cn2ncc3c(C)n(Cc4ccc(F)cc4)c(C)c3c2=O)C1 (stereo unspecified) | -10.6%[46.1 µM] | · | -14.6%[46.1 µM] | · | -27.1% | ? | · | -2.7%
CCN1CCCC1Cn1cnc2c([nH]c3cccc(Cl)c32)c1=O (stereo unspecified) | 18.2% | 4.3% | ? | -19.1% | -14.1% | -4.9% | 7.2% | 2.4%
COc1ccc(CCNC(=O)CCN2N=C(c3ccccc3)CCC2=O)cc1OC | 2.1%[46.1 µM] | · | · | · | -14.6% | -6.2% | · | -1.2%
CCC1Sc2ccc(S(=O)(=O)CCC(=O)NCc3ccco3)cc2NC1=O (stereo unspecified) | · | -2.8% | · | -7.1% | ? | · | 7.8% | ·
COc1ccc(NC(=O)c2cccc(S(=O)(=O)N3CCN(C)CC3)c2)c(OC)c1 | · | -7.7% | 3.0%[46.1 µM] | -9.0% | 5.3% | · | -1.4% | ·
COc1c2c(nc3ccccc13)OC(C(C)(O)COC(C)=O)C2 (stereo unspecified) | 9.0% | -4.6% | -4.8% | -15.4% | 12.5% | 1.8% | 3.4% | 9.3%
Cc1ccc(OCc2nc3c4c(ncn3n2)-c2ccccc2CC42CCCC2)cc1 | -12.0% | -3.5% | -18.4% | -2.4% | -28.4% | -25.0% | 4.4% | -2.3%
O=C(Nc1ccc(Cl)cc1Cl)c1cccc(N2C(=O)C=CC2=O)c1 | · | -73.5% | 2.5% | 1.26µM* | -29.4% | 0.7% | -18.6% | -8.9%
COc1ccc(C2/C(=C(\O)c3ccc4c(c3)CC(C)O4)C(=O)C(=O)N2Cc2cccnc2)c(OC)c1 (stereo unspecified) | 23.4% | -31.6% | -22.3% | -1.7% | -26.0% | · | -0.4% | ·
Cc1[nH]ccc(=O)c1OCc1c(F)cccc1Cl | -0.4%[46.1 µM] | · | 8.4%[46.1 µM] | 6.6% | 2.9% | · | 2.5% | ·
CCN(Cc1ccccc1)Cc1c(O)ccc2c(=O)c(-c3ccccc3Cl)c(C(F)(F)F)oc12 | ? | · | 7.0%[46.1 µM] | · | -22.3% | 20.8% | · | -1.4%
CCOC(=O)CC(=O)CSc1nc2ccccc2c(=O)n1CCc1ccc(S(N)(=O)=O)cc1 | -15.6%[46.1 µM] | · | · | · | -21.3% | -5.0% | · | -3.5%
CCc1nnc(NC(=O)CSc2nnc3c(n2)[nH]c2ccccc23)s1 | -1.1% | · | 9.9%[46.1 µM] | -14.4% | -14.7% | · | -4.6% | ·
O=C(Nc1ccc(OC(=O)c2ccco2)cc1)c1ccco1 | 10.1% | -16.3% | 24.9% | ? | 20.2% | -11.3% | -54.4% | -1.1%
O=C(COC(=O)c1ccc(CNS(=O)(=O)c2ccc(F)c(Cl)c2)cc1)NCC1CCCCC1 | -2.5% | -1.8% | -7.8% | 2.2% | -20.5% | 4.5% | -3.6% | -4.9%
CC(C)CN(CCNC(=O)c1cc(-c2ccc(Cl)s2)nc2ccccc12)CC(C)C | 15.9%[46.1 µM] | · | 2.7%[46.1 µM] | · | -10.3% | 7.4% | · | -0.9%
Cc1c(Cl)cccc1NC(=O)CSc1nccn1C | ? | 3.8% | 2.3%[46.1 µM] | -4.1% | -1.8% | · | 1.6% | ·
CCN(CC1COc2ccccc2O1)S(=O)(=O)c1ccc(C)cc1 (stereo unspecified) | 8.3% | -13.2% | -5.5% | -6.8% | 0.0% | -2.1% | -25.1% | -6.1%
CCOC(=O)C1CCN(C(c2ccc(C)cc2)c2c(O)cc(C)n(CCOC)c2=O)CC1 (stereo unspecified) | 0.5%[46.1 µM] | · | · | · | -21.4% | 23.9% | · | -1.3%
CCN1C(=O)N(S(=O)(=O)C(F)(F)F)[C@@H](c2ccccc2)C(C(=O)OC)=C1C | · | -0.6% | -6.0%[14.2 µM] | -21.0% | -27.9% | · | -9.9% | ·
CC(C)c1c(O)nc(SCCN2CCOCC2)[nH]c1=O | 4.7% | 9.6% | 2.4% | 24.3% | · | -4.4% | 9.4% | 1.2%
O=c1c2c(ncn1CCO)nc1n2CCC1 | 10.5% | 14.4% | 4.7% | 13.1% | -4.9% | 3.2% | 4.4% | -0.1%
O=C(COC(=O)c1cc(NS(=O)(=O)c2cccs2)ccc1O)Nc1ccccc1 | · | -9.8% | · | -1.6% | 3.5% | · | -1.1% | ·
CN(C)CCNC(=O)c1cccc(NS(=O)(=O)c2ccc(Cl)c(Cl)c2)c1 | -15.6%[46.1 µM] | · | ? | 11.1% | -15.0% | · | -0.8% | ·
CCCCNC(=O)CSc1nnc(Cc2ccccc2)n1CC1CCCO1 (stereo unspecified) | · | -3.0% | · | 1.2% | 7.8% | · | 0.0% | ·
O=C1C=C(Nc2ccc(Cl)cc2)CC(c2ccccc2)C1 (stereo unspecified) | ? | 7.8% | ? | 1.0% | -10.1% | -11.6% | -13.4% | -0.9%
Cc1cc(C)n2c(Nc3ccc4c(c3)OCCO4)c(-c3ccc(C)o3)nc2n1 | · | 4.4% | · | 3.0% | 40.4%[activator] | 5.3% | 3.4% | -4.6%
CC1=C(OC(=O)C(C)(C)C)C(C)(C)C(c2ccccc2)OC1=O (stereo unspecified) | -2.6% | -13.5% | 3.0% | -5.2% | -23.1% | -14.4% | -15.5% | -4.5%
O=C(NCCSCc1ccc(Cl)cc1)c1cccs1 | -29.3%[46.1 µM] | -44.0% | -5.9%[46.1 µM] | -25.2% | -11.8% | · | -3.8% | ·
Cc1cc(C)cc(NC(=O)CCN2C(=O)c3ccccc3Sc3ncccc32)c1 | -1.8%[46.1 µM] | · | · | · | -5.0% | 3.9% | · | -1.1%
Cc1cccc(OCc2nnc(SCC(=O)N3CCCCC3)o2)c1 | -34.8% | ? | -4.4%[46.1 µM] | -14.8% | 6.0% | · | 1.7% | ·
CCC(C(=O)NCC1CCCO1)N(C(=O)CNS(=O)(=O)c1ccccc1)c1ccc(F)cc1 (stereo unspecified) | -0.9% | -26.7% | 23.1%[46.1 µM] | 1.3% | -0.9% | · | 0.3% | ·
Cc1ccc(S(=O)(=O)NCCNC(=O)c2ccc(C)nc2)cc1 | -2.6%[46.1 µM] | 2.8% | ? | -7.9% | 26.3% | · | 0.9% | ·
O=c1oc(=O)c2ccccc2c2ccccc12 | 8.6%[46.1 µM] | · | 26.5% | -13.9% | -14.5% | · | · | ·
O=C(NCC(c1cccnc1)N1CCN(c2ccc(F)cc2)CC1)c1ccc2c(c1)OCO2 (stereo unspecified) | -15.9% | -5.0% | -21.0% | -3.1% | ? | 5.6% | -6.6% | 1.1%
CCS(=O)(=O)c1ccc2oc(Nc3ccc(OC)cc3)nc2c1 | 17.4% | · | 5.3%[46.1 µM] | -4.3% | 47.2%[activator] | · | -0.8% | ·
COc1ccccc1CCNC(=O)CN1C(=O)c2ccccc2S1(=O)=O | -27.9% | · | -3.1%[46.1 µM] | 10.3% | 14.0% | · | 0.5% | ·
CCOC(=O)N1CCN(C(=O)c2ccc(NS(=O)(=O)c3ccc4[nH]c(=O)[nH]c4c3)cc2)CC1 | -9.1% | · | 13.7% | -14.1% | -21.9% | · | 1.6% | ·
NC(=O)CSc1ncc2c(n1)-c1ccccc1N(Cc1ccc(Cl)cc1)S2(=O)=O | ? | · | · | · | -1.9% | -13.2% | · | 2.6%
COC(=O)c1nc2n(n1)C(c1cc(OC)ccc1OC)C(C(=O)OC1CCCCC1)=C(C)N2 (stereo unspecified) | ? | 2.8% | -1.2%&-16.1% | 2.4%[3.69 µM] | -23.9% | ? | -4.0% | -7.0%
CCC(=O)N1CCc2cc(CNC(=O)c3ccc(OC)cc3)ccc21 | 22.9%[46.1 µM] | · | · | · | 21.5% | 2.3% | · | 2.2%
CC1(C)CC(=O)C2=C(C1)N(Cc1ccco1)C(=O)NC2(C(F)(F)F)C(F)(F)F | 7.7% | 4.0% | -2.5%&-2.5% | 6.3% | · | -2.5% | 2.2% | 6.2%
COc1cccc(-n2c(SCC(N)=O)nc3c([nH]c4ccccc43)c2=O)c1 | -23.6% | -8.8% | ? | 7.3% | -26.8% | -14.3% | -2.1% | -2.7%
CCn1nc(CCC(=O)O)c2ccccc2c1=O | 0.3% | 0.0% | 2.1% | 0.4% | 11.3% | -2.6% | 8.1% | -3.4%

High-throughput results from PubChem BioAssay.
